NS1 inh = qHTS Assay for Inhibitors of Influenza NS1 Protein Function. S. cerevisiae slowed by influenza A NS1, growth recovery by OD600. Potency, µM (series often up to 46.1 µM), inactives show top-dose activity, positive = more growth. actives 0.4% (n = 270,000). AID 2326, 2010; further: actives are rising curves; nearly all actives have a fitted effect of over 50% in size
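Compounds were scored for reversing the slow growth caused by influenza A NS1 in S. cerevisiae, measured by optical density at 600 nm. Assay medium contained 2% galactose at pH 6.0; NS1-free yeast of the same strain were the positive control.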
RE007 growth inh = qHTS Assay for Inhibitors of the HIV-1 protein Vpr; Potency, µM (top dose mostly 92.2 µM), for the others: top-dose activity change, negative = less growth; actives 0.21% (n = 360,000); S. pombe RE007 Vpr strain, BacTiter-Glo ATP luminescence, 24 h; control for the full effect not named in the record; active = well fitted falling curve with a large enough effect; inconclusive = small, poorly fitted or top-dose-only effect; inactive = no such curve, though single readings can be large or run the other way;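 further: on the % scale 0 is the no-effect control and ±100 the full control effect; nearly all actives have a fitted effect of over 50% in size; the assay follows cell death caused by Vpr and the record does not say whether a fall means rescue or toxicity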
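Fission yeast strain RE007, carrying one chromosomally integrated HIV-1 vpr copy, was seeded at OD 0.01 in PMG+AL medium with 23 nL pinned compound. After 24 h at 30 °C and 99% humidity, viability was read by BacTiter-Glo luminescence.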
2A StopGo = High Throughput Screening for Foot and Mouth Disease Virus Antivirals. human cells with a luciferase reporter of 2A StopGo recoding; control for the full effect not named in the record. Potency, µM (titrated, usually from 57.9 µM), without a hit: top-dose signal change, negative = less light. actives 1.2% (n = 410,000); active = well fitted falling curve with a large enough effect; inconclusive = small, poorly fitted or top-dose-only effect; inactive = no such curve, though single readings can be large or run the other way; tested in HEK293T cells; further: on the % scale 0 is the no-effect control and ±100 the full control effect; nearly all actives have a fitted effect of over 45% in size; luciferase light after 4 h
Marburg entry inh = qHTS for inhibitors of binding or entry into cells for Marburg Virus; Marburg virus pseudotyped entry inhibition, cell reporter; control for the full effect not named in the record; about a third of the inactives were read at about 46 µM; AID 540276, 2011; Potency, µM (titrated, usually from 37.8 µM), inactives show top-dose activity change, negative = inhibition, hits mostly inhibitors; actives 1.8% (n = 300,000); active = well fitted inhibition curve with a large enough effect; inconclusive = small, poorly fitted or top-dose-only effect, or effect the other way; inactive = flat fitted curve, though single readings scatter; tested in HEK293 cells; about a fifth of its hits are not listed in these tables; further: on the % scale 0 is the no-effect control and ±100 the full control effect; luciferase read-out
Cruzain inh Det = qHTS Assay for Promiscuous and Specific Inhibitors of Cruzain (with detergent); purified cruzain, Z-FR-AMC fluorescence, 0.01% Triton; Potency, µM, for the others: max response, negative = inhibition, actives largely listed as inhibitors; actives 0.43% (n = 200,000); active means well fitted curve in the direction sought with a large enough effect; inconclusive means small, poorly fitted or top-dose-only effect, or another doubt; inactive means no such curve, though single readings can be large; an effect the other way counts as inactive or inconclusive;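 further: plate controls were neutral wells for no effect and buffer without enzyme for full effect; nearly all actives have a fitted effect of over 40% in size; top concentration of the series not given in the record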
Target sequence (P25779 123-467 limits assumed): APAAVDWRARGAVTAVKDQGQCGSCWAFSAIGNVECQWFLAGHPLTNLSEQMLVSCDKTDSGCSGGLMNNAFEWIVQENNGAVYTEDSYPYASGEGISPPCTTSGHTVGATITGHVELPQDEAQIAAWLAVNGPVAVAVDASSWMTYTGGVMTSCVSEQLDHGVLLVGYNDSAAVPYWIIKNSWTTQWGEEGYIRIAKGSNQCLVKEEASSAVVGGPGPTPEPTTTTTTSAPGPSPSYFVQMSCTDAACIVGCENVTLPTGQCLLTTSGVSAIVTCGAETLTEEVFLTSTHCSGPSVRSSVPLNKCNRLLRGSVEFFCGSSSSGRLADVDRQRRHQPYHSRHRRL
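Enzyme 1.5 nM, Z-FR-AMC 2 uM, NaOAc 100 mM pH 5.5, DTT 5 mM, Triton X-100 0.01%; 15 min RT compound preincubation; kinetic ex360/em450, 60 s delta.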
SARS PLP yeast = qHTS of Yeast-based Assay for SARS-CoV PLP; S. cerevisiae expressing SARS-CoV PLpro, growth rescue; control for the full effect not named in the record; AID 485353, 2010; Potency, µM (highest dose often 32.9 µM), inactives show top-dose activity, positive = growth rescue; actives 0.19% (n = 330,000); further: 0% is about no effect; nearly all actives have a fitted effect of over 55% in size; growth read by luminescence after 48 h
Lassa entry inh = qHTS for Inhibitors of binding or entry into cells for Lassa Virus | Lassa virus pseudotype entry inhibition, cell reporter; control for the full effect not named in the record | Potency, µM (top dose mostly 37.9 µM), for the others: at the top dose activity change, negative = inhibition, usual class: inhibitors | actives 1.2% (n = 300,000) | AID 540256, 2011; active means well fitted inhibition curve with a large enough effect; inconclusive means small, poorly fitted or top-dose-only effect, or effect the other way; inactive means flat fitted curve, though single readings scatter; tested in HEK293 cells; further: on the % scale 0 is the no-effect control and ±100 the full control effect; nearly all actives have a fitted effect of over 50% in size; luciferase read-out
Cruzain noTriton = qHTS Assay for Promiscuous and Specific Inhibitors of Cruzain (without detergent). Cruzipain (Trypanosoma cruzi), P25779. purified cruzain, Z-FR-AMC fluorescence, no detergent. Potency, µM, without a hit: max response, negative = inhibition, actives largely listed as inhibitors. actives 2.3% (n = 200,000); active means well fitted curve in the direction sought with a large enough effect; inconclusive means small, poorly fitted or top-dose-only effect, or another doubt; inactive means no such curve, though single readings can be large; an effect the other way counts as inactive or inconclusive;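 further: plate controls were enzyme without inhibitor for no effect and buffer without enzyme for full effect; nearly all actives have a fitted effect of over 40% in size; top concentration of the series not given in the record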
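Detergent-free condition (0.00005% Triton X-100) in acetate buffer pH 5.5 with DTT. 1.5 nM enzyme and compound were pre-mixed 15 min, then 2 uM Z-FR-AMC substrate added; reaction progress from fluorescence change between first and third reads (60 s).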
* marks the source's active call; other numbers are inactive results; u = inconclusive; x = not tested or not shown; & = joins results of further samples; [ ] = remark or other dose. Unless noted, the call rests on the fitted dose curve; in most records, active means well fitted rising curve with a large enough effect; inconclusive means small, poorly fitted or top-dose-only effect; inactive means no such curve, though single readings can be large or run the other way. Potency means the concentration at half of the fitted maximal effect. Rows are unselected; any-hit rate near 4.7%.

SMILES	NS1 inh	RE007 growth inh	2A StopGo	Marburg entry inh	Cruzain inh Det	SARS PLP yeast	Lassa entry inh	Cruzain noTriton
CCOc1ccccc1-c1nc(CN2CCN(C(=O)c3ccco3)CC2)c(C)o1	-2%	9%	-9%	x	x	3%	x	x
COC(=O)C1CCN(c2ccc(Cl)nn2)CC1	2%	2%	8%	16%[46.1 µM]	x	0%	23%[46.1 µM]	x
c1csc(-c2nc(CN3CCSCC3)cs2)c1	3%	-15%	-51%	u	x	-1%	u	x
CC(=O)C(Sc1nc(NC(C)(C)C)nc(N(C)C)n1)C(C)=O	-41%	-6%	-15%	-20%	-7.9%	-5%	14%	12%
COc1cccc(C(=O)N2CCN(Cc3ccco3)CC2)c1OC	0%	5%	-19%	u	-1.6%	5%	-2%	1%
NC(=O)CC(NC(=O)c1ccc(Br)cc1)c1ccc(N2CCC(Br)CC2)c([N+](=O)[O-])c1 (stereo unspecified)	12%	0%	u	x	x	0%	x	x
Cc1ccsc1/C=N/NC(=O)Cc1cccn1C	11%	-12%	3%	u	-3.5%	-11%	7%	-1%
COc1cccc(/C=N/NC(=S)NCCc2ccccc2)c1OC	-5%	12%	-6%	13%[46.1 µM]	x	-1%	6%[46.1 µM]	x
C/C(N)=C(/C#N)C(=O)COC(=O)COc1ccc(Cl)cc1	-5%	2%&17%	-2%&0%	4%[46.1 µM]	-3.0%	10%	19%[46.1 µM]	-1%
COc1cccc(NC(=O)N2CCOCC2)c1	-4%	2%	11%	15%	2.2%	3%	4%	0%
Cc1cccc2[nH]c(CN(C)C(=O)C3CCC(=O)N(C4CC4)C3)nc12 (stereo unspecified)	-1%	18%	2%	x	x	-5%	x	x
COc1cc(O)c(C(=O)CC(=O)c2ccncc2)c(OC)c1	x	11%	-2%	-21%[46.1 µM]	x	x	-6%[46.1 µM]	x
COC(=O)c1sccc1S(=O)(=O)N1CCN(c2ccc(Cl)cc2)CC1	x	x	-22%	x	-7.1%	x	-30%[46.1 µM]	12%
CCOC(=O)C(Nc1ccc2ccccc2c1)C(=O)OCC	x	u	-8%	13%	-7.5%	-62%	0%	1%
FC(F)Oc1ccc(NC(=S)N2CCN(Cc3ccccc3)CC2)cc1	x	2%	-5%	u	x	-10%	-9%	x
CCC(C)C(NC(=O)C1CCC(C)CC1)C(=O)NCc1cccnc1 (stereo unspecified)	-3%	4%	10%	-9%	0.8%	u	-11%	-11%
COc1cc(C2C(C(=O)c3ccc(C)o3)=C(O)C(=O)N2CCCn2ccnc2)cc(OC)c1OC (stereo unspecified)	2%	-9%	-18%	-12%	x	1%	-13%	x
COc1ccc(CCNC(=O)/C(C#N)=C2\N=C(NC(=O)c3cccs3)c3ccccc32)cc1	-4%	1%	u	-2%	-3.8%	-4%	35%	u
O=C(COC(=O)c1cccnc1)Nc1ccc2c(c1)OCO2	3%	6%	2%	x	x	-1%	x	x
Cc1cc(NCCO)c2cc(O)ccc2n1	9%	-7%	-23%	1%	-2.9%	-5%	4%	-5%
CC(OC(=O)CCC(=O)c1ccc(F)cc1)C(=O)NC1CCCCC1C (stereo unspecified)	-1%	-2%	-10%	-15%	x	22%	12%	x
O=c1c2ccccc2nc(/C=C/c2ccccc2)n1-c1ccccc1F	x	x	-16%	x	0.2%	x	-6%[46.1 µM]	-1%
CCN(CC(=O)Nc1c(F)cccc1F)C(=O)C1CCCN(C(=O)c2ccc(Cl)cc2)C1 (stereo unspecified)	-65%	4%	-14%	13%	x	-14%	-9%	x
Cc1cc(Br)cc(C)c1NC(=O)c1cnc2ccccn2c1=O	x	x	43%[activator]	u	-1.6%	x	x	-4%
CC1=CC(=O)CC(C)(C)C1(O)/C=C/C(C)=C/C(=O)O (stereo unspecified)	6%	-2%	-12%&-13%	x	4.6%	0%	x	-13%
Carrying on.
SMILES	NS1 inh	RE007 growth inh	2A StopGo	Marburg entry inh	Cruzain inh Det	SARS PLP yeast	Lassa entry inh	Cruzain noTriton
O=C1c2ccccc2C(=O)N1C1(C(=O)NC2(C(=O)O)CCCC2)CCCC1	9%	-2%	7%	2%	5.0%	x	3%	4%
COCCn1cnnc1SCC(=O)Nc1cccc(S(=O)(=O)N(C)c2ccccc2)c1	-1%	4%	-25%	8%[46.1 µM]	x	0%	21%[46.1 µM]	x
S=C(c1ccc(Cl)cc1)N1CCN(Cc2ccccc2)CC1	-5%	-22%	0%	-1%[46.1 µM]	x	0%	-19%[46.1 µM]	x
Cc1cccc(CSCCNC(=O)CN(c2ccccc2)S(=O)(=O)N(C)C)c1	x	x	-21%	16%[46.1 µM]	-6.6%	x	7%[46.1 µM]	u
CC(C)C[C@H](NC(=O)OC(C)(C)C)c1nnc(SCC(=O)Nc2ccc(Br)cc2)o1	u	1%	u	3%	-15%	8%	-28%	8%
Cc1ccc(C)c(S(=O)(=O)N2CCN(C(=O)CSc3ccccc3F)CC2)c1	1%	-6%	u	x	x	-1%	x	x
CSc1nc(-c2ccccc2)nc(N2CCOCC2)c1C(C)=O	x	11%	1%	u	x	-7%	19%[46.1 µM]	x
CC(CN1CCN(C)CC1)OC(=O)c1ccccc1 (stereo unspecified)	-7%	-23%	10%	5%	5.6%	-1%	6%	5%
CCOc1ccc(CNC(=O)CCn2c(=O)oc3ccccc32)cc1OC	4%	-3%	-11%	2%	3.4%	8%	-4%	-6%
CCCCc1nn2c(=O)cc(COC(=O)c3ccccc3NC(=O)C3CCCCC3)nc2s1	x	x	-15%	x	0.8%	x	-4%[46.1 µM]	-4%
CCN(CC)c1ccc(CNc2ccc3c(c2)ncn3CC)cc1	3%	-10%	-7%	5%[46.1 µM]	x	2%	12%[46.1 µM]	x
C[C@@]12CCC=C[C@H]1[C@H](c1ccc3ccccc3c1Br)N(Cc1ccccc1)C2=O	17%	11%	-23%	x	x	8%	x	x
CC1(C)N=C(c2ccc(F)cc2)C(=O)N1CC(=O)Nc1ccccc1Cl	x	x	-4%	-2%[46.1 µM]	-1.0%	x	-4%[46.1 µM]	23%
Cc1cc2cc(CNC(=O)Nc3ccccc3)ccc2n1C	u	-14%	73%[activator]	29%	-3.1%	-1%	u	u
CC(C)[C@H](NC(=O)C1CCC(CNC(=O)[C@@H]2CCCN2C(=O)OC(C)(C)C)CC1)C(=O)O (stereo partly specified)	2%	-20%	0%	13%[46.1 µM]	x	1%	-12%[46.1 µM]	x
Cc1ccccc1C(CC(=O)c1cccs1)C(C#N)C#N (stereo unspecified)	-17%	x	11µM*	u	-9.5%	-50%	-12%	3%
CC(C)Cn1c(N)c(C(=O)COC(=O)c2cc(-c3ccccc3)nc3ccccc23)c(=O)n(C)c1=O	8%	8%	u	-14%&-14%&-14%	-1.9%&-13%	1%	0%	-2%&2%
CCn1c(SCc2ccccc2)nc2c(c1=O)SCC2	x	-24%	u	-22%	x	-4%	u	x
COc1ccc(-c2cc(C(=O)Oc3ccc(C)cc3)c3ccccc3n2)cc1	x	x	-12%	x	2.4%	x	-1%[46.1 µM]	22%
Cc1c(NC(=O)c2cc(S(=O)(=O)N3CCCCC3)ccc2Cl)c(=O)n(-c2ccccc2)n1C	x	4%	38%[activator]	-14%[46.1 µM]	x	6%	13%[46.1 µM]	x
CC1(C)CC2CC(C)(CN2C(=S)Nc2ccccc2F)C1 (stereo unspecified)	-6%	-4%	30%	-16%[46.1 µM]	x	8%	1%[46.1 µM]	x
Cc1nnc(-c2cnn(C)c2N)n1Cc1ccccc1F	6%	11%	-12%	1%	5.2%	0%	19%	1%
CCC(Cc1ccccc1)NC(=O)C1CCN(S(=O)(=O)c2ccc3c(c2)CC(C)N3C(C)=O)CC1 (stereo unspecified)	-17%	3%	-14%	x	x	1%	x	x
CCC(C)NCCOCCOc1ccccc1-c1ccccc1 (stereo unspecified)	-2%	0%	-11%	u	1.9%	6%	u	-4%
Cc1ccc(SCc2cc(=O)[nH]c(SCC(=O)Nc3cc(Cl)ccc3Cl)n2)cc1	x	-1%	-5%	u	x	1%	2%[46.1 µM]	x
Carrying on:
SMILES	NS1 inh	RE007 growth inh	2A StopGo	Marburg entry inh	Cruzain inh Det	SARS PLP yeast	Lassa entry inh	Cruzain noTriton
Cc1ccc(N(Cc2cccs2)C(=O)c2ccc(OC(C)C)cc2)cc1	x	x	11%	u	-13%	x	u	-23%
CC(OC(=O)CSc1ccc(F)cc1)C(=O)NC1(C#N)CCCCC1 (stereo unspecified)	9%	5%	-2%	-6%[46.1 µM]	x	2%	-14%[46.1 µM]	x
CCOc1cccc(C(=O)Nc2nnc(-c3cccs3)s2)c1	-1%	0%	11%	1%[46.1 µM]	-0.3%	4%	-13%	16µM*
COc1ccc(/C=N/NC(=O)CN2CCCc3ccccc32)c(OC)c1	u	-16%	0%	-3%[46.1 µM]	x	2%	17%	x
O=C(Nc1ccc(Nc2ccccc2)cc1)c1ccc(Br)o1	-121%	-28%	1%	u	-4.7%	-39%	16%	-10%
O=C(OCC(=O)N1CCc2ccccc21)c1c2c(nc3ccccc13)CCCC2	6%	-16%	-13%	u	-4.6%	-18%	u	u
O=C(NCC1CCCO1)c1cc(S(=O)(=O)Nc2ccc(Br)cc2)ccc1Cl (stereo unspecified)	-7%	9%	20%	x	x	0%	x	x
COc1ccc(NC(=O)CSc2n[nH]c(=O)n2C2CC2)cc1Cl	x	-12%	-17%	10%	x	-23%	-3%	x
C=CCN1C(=O)/C(=C\c2ccc(Oc3nc(N4CCOCC4)nc(N4CCOCC4)n3)c(OC)c2)SC1=S	x	-9%	-10%	-6%[46.1 µM]	x	2%	u	x
C/C(N)=C(/C#N)C(=O)CSc1nc2ccccc2c(=O)n1CCCOC(C)C	3%	16%	4%	u	-2.2%	21%	u	-1%
Cc1ccc(OCCSc2nc3ccccc3n2CC(=O)O)c(C(C)C)c1	10%	3%	-10%	2%[46.1 µM]	x	1%	7%[46.1 µM]	x
COc1ccc(-c2csc(-c3cccnc3)n2)cc1C	-28%	7%	27%	-14%	x	-4%	5%	x
CCOc1ccc(CNC(=O)CS(=O)(=O)c2cccc3nsnc23)cc1	x	x	u	x	2.4%	x	-5%[46.1 µM]	-5%
O=C(CSc1nc(N2CCCCC2)nc(N2CCCCC2)n1)Nc1nccs1	0%	-3%	-13%	15%	-7.3%	-2%	16%	u
